Bioassay records from PubChem BioAssay.
PV pol inh = inhibitors of poliovirus RNA polymerase binding and polymerization; % elongation, % (compound at 16.7 µg/mL); poliovirus polymerase elongation, fluorescence polarization; stronger effect = lower value; 150,000 tested, 0.66% active; in the data active means % elongation below about 90%; further: some results filed as inactive read as strong as hits
Target sequence (P03300 1749-2209 limits assumed): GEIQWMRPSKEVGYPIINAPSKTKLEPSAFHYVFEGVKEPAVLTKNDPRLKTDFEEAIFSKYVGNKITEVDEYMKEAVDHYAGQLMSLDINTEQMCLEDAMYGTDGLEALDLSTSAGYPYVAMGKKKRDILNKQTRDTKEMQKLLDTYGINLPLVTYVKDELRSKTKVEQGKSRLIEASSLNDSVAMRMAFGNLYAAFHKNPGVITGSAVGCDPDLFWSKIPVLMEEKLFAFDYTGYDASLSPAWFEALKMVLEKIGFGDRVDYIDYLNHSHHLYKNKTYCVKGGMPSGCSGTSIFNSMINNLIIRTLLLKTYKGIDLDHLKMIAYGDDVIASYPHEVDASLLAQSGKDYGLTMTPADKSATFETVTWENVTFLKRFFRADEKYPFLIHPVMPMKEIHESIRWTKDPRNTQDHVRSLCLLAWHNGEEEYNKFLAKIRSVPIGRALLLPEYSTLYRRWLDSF
MbtI inh = inhibitors of Mycobacterium tuberculosis siderophore enzyme MbtI; P9WFX0; purified MbtI enzyme, fluorescence intensity read-out; inhibition, %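 (about 17 µg/mL by stock and volumes)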; 100,000 tested, 0.89% active; AID 493033;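 active means above 50% in both replicates, above 80% if mildly self-fluorescent; inactive means the rest, strongly fluorescent compounds included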;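 further: 0% = mean of negative and 100% = mean of positive controls; one replicate is shown; some compounds called inactive have numbers as strong as hits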
Target sequence (P9WFX0 whole entry, looked up): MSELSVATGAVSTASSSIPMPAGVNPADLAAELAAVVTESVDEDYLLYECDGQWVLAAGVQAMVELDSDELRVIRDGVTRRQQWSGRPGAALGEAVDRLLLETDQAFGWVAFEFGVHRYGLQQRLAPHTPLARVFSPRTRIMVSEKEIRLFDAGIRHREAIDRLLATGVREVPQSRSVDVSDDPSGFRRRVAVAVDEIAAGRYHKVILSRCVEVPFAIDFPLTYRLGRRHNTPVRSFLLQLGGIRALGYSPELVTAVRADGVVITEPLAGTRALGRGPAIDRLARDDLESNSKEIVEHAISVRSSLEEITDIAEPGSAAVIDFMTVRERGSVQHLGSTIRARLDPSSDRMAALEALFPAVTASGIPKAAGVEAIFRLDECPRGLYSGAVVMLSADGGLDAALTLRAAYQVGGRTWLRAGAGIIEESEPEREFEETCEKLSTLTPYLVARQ
Mtb MenB inh = blocks the Mycobacterium tuberculosis MenB enzyme. P9WNP5. MenB enzyme assay, absorbance read-out; some hits fall short of the stated cut. AID 540299. inhibition, %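 (about 12 µg/mL by stock and volumes)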. 100,000 tested, 0.43% active;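 active means mean of two replicates above 30%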;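 further: 0% = no compound and 100% = wells with inactive enzyme; the first replicate is given; strong numbers were not always called active; inactives centre near -10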
PV pol inh intensity = second read-out of PV pol inh, no call of its own (marks repeat the call); % elongation; measured here: total intensity read-out; formula for this scale not given here;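 total fluorescence in place of polarization; lower means less elongation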
* marks the source's active call; other numbers are inactive results; i = inactive; / = no result given; & = joins results of further samples.

item	structure	PV pol inh	PV pol inh intensity	MbtI inh	Mtb MenB inh
1	COC(=O)c1cc(=O)n2c(nc3cc(C(F)(F)F)ccc32)s1	105	102	16	-13
2	O=C(CSCCO)Nc1ccccc1	103	103	-1	-2
3	CCNC(=O)N(c1ccccc1)c1ccccc1	103	105	1	-11
4	COc1cc(C(=O)Oc2ccc3c(c2)OCC3=O)cc(OC)c1OC	100	108	-230	-23
5	C=CCN1C(=O)NC(=O)/C(=C\c2cn(Cc3ccccc3)c3ccccc23)C1=O	101	106	-3	2
6	NC(=O)N/N=C1\CCc2ccccc21	106	105	10	-13
7	O=CNC(=O)c1ccccc1C(=O)O	103	106	-17	-41
8	CN(C)CCn1c(=S)[nH]c2ccccc2c1=O	107	109	40	-13
9	CN1C(=O)Cc2cc(S(=O)(=O)N3CCCCC3)ccc21	100	103	0	1
10	C/C(=N\N1CCN(C2c3ccccc3-c3ccccc32)CC1)c1cccnc1	108	110	/	-27
11	Cc1ccc(Nc2nc(N)nc(CN3CCN(C(=O)C4COc5ccccc5O4)CC3)n2)cc1 (configuration not stated)	106	120	-7	-30
12	CCOc1cc(CNc2ccc(N3CCOCC3)cc2)ccc1OCc1ccccc1	103	103	73	-14
13	N#CC(C#N)=C(c1ccccc1)c1ccccc1	99	104	-2	-58
14	Cc1ccccc1OCC(=O)NC(C)C	103	104	18	17
15	Cc1ccc(S(=O)(=O)N2N=C3CCCCC3C2(O)C(F)(F)F)cc1 (configuration not stated)	100	101	-7	-8

An excerpt from above, reduced to MbtI inh, Mtb MenB inh and PV pol inh intensity:
no.	SMILES	MbtI inh	Mtb MenB inh	PV pol inh intensity
6	NC(=O)N/N=C1\CCc2ccccc21	10	-13	105
15	Cc1ccc(S(=O)(=O)N2N=C3CCCCC3C2(O)C(F)(F)F)cc1 (configuration not stated)	-7	-8	101

Continued:
item	structure	PV pol inh	PV pol inh intensity	MbtI inh	Mtb MenB inh
16	Cc1noc(C)c1COC(=O)c1ccc2c(c1)S(=O)(=O)N=C1CCCCCN12	/	/	-1	-22
17	O=C(CCCc1ccccc1)OCn1nnc2ccccc2c1=O	103	109	-5	-20
18	CC(C)N(Cc1ccccc1)C(=O)CSc1nnc(-c2ccco2)n1-c1ccccc1	101	102	3	-22
19	CNC(=O)c1cc2c(=O)n3cc(C)ccc3nc2nc1NCC1CCCO1 (configuration not stated)	101	103	89	-46
20	CCOC(=O)C1(O)c2ccccc2NC(=O)N1C (configuration not stated)	104	108	-15	-17
21	CSc1cccc(NC(=S)NN(C)C)c1	106	111	-9	21
22	O=C(Nc1ccc(F)cc1F)Nc1noc2c1COc1ccccc1-2	105	99	4	0
23	CN(C)CCNc1ccc(Cl)nn1	98	110	-4	-40
24	CC(C)N(Cc1ccccc1)CC(O)COc1ccc(S(=O)(=O)N2CCOCC2)cc1Cl (configuration not stated)	99	99	21	-4
25	CC(C)NC(=O)COc1ccccc1C#N	101	100	-6	-13
26	COC(=O)C1CNc2ccccc2C1=O (configuration not stated)	88	123	/	-56
27	Cn1nc(C(=O)NCCN(Cc2ccco2)C2CCCC2)c2c1-c1ccccc1OC2	105	106	-16	0
28	CC(=O)N=c1scc(C)n1C(C)(C)C	107	102	14	12
29	CS(=O)(=O)c1nnnn1-c1ccc2c(c1)OCO2	100	105	0	-13
30	Cc1ccc2nc(COC(=O)C3=COCCO3)cc(=O)n2c1	106	108	112	-1

Some of the entries so far, with each value named:
21. CSc1cccc(NC(=S)NN(C)C)c1
  PV pol inh: 106
  PV pol inh intensity: 111
  MbtI inh: -9
  Mtb MenB inh: 21
22. O=C(Nc1ccc(F)cc1F)Nc1noc2c1COc1ccccc1-2
  PV pol inh: 105
  PV pol inh intensity: 99
  MbtI inh: 4
  Mtb MenB inh: 0

More entries.
item	structure	PV pol inh	PV pol inh intensity	MbtI inh	Mtb MenB inh
31	S=c1nc(-c2cccs2)[nH][nH]1	69*	78*	123	-58
32	CCCc1c(OCCCCc2nn[nH]n2)ccc(C(C)=O)c1O	103&100	105&103	-9	0
33	c1ccc(CCCNCc2nnc(-c3ccccc3)o2)cc1	99	99	3	15
34	CCOC(=O)CCSc1ccccn1	102	99	/	-3
35	Cc1cc(/C=N/N2CCOCC2)c(C)n1-c1cccc(S(=O)(=O)N2CCOCC2)c1	107	115	20	-22
36	CCC1(C)NC(=O)N(/N=C/c2c(F)c(F)c(F)c(F)c2F)C1=O (configuration not stated)	99	96	5	0
37	N#CC1(P(=S)(c2ccccc2)c2ccccc2)CCCC1	107	113	/	-5
38	COC(=O)c1ccc(N2CCN(C)CC2)c(NC(=O)C(C)(C)Oc2ccc(Cl)cc2)c1	104	106	-23	-16
39	Cc1[nH]c(=O)n(C(C)(C)C)c(=O)c1C	101	106	/	-19
40	Cc1ccccc1NC(=O)C(NC1CCCCC1)C(C)C (configuration not stated)	102	102	-6	-11
41	CC(Sc1nncs1)C(=O)NCc1ccc2c(c1)OCO2 (configuration not stated)	103	106	-50	2
42	Nc1cccc2c1C(=O)N(C(=O)c1cccc(S(=O)(=O)N3CCOCC3)c1)C2=O	100	104	-13	-33
43	Cc1cc(=O)n(C(C)C(=O)N2CCN(c3ccccc3)CC2)c2c1c(C)nn2-c1ccccc1 (configuration not stated)	104	101	-6	-24
44	O=C(NC1CC1)c1n[nH]c(=O)c2ccccc12	102	100	/	6
45	CC(C)(C)n1ncc2c(=O)n(Cc3cccc4ccccc34)cnc21	102	104	2	-19
46	CCC(=O)Nc1ccc2c(c1)C(=O)OC2	100	101	-5	12
47	O=C(O)C1CSC(c2cccs2)N1 (configuration not stated)	100	100	-5	15
48	CC(=O)N1CCN(c2ccccc2N)CC1	104	102	-8	-22
49	CCSc1nc(N(C)C)nc(N2CCOCC2)n1	99	101	6	2
50	CCCNC(=O)OCN1C(=O)c2ccc(N)cc2C1=O	98	116	-76	-29
51	O=C(Nc1ccccc1)c1cc2ccccc2c(=O)o1	102	100	-20	-5
52	Cc1ccc(C(=O)COC(=O)CC2Oc3ccccc3NC2=O)c(C)c1 (configuration not stated)	103	107	-13	1
53	CCn1c(C)cc2c(c1=O)C(c1cccc(OC)c1)C(C#N)=C(N)O2 (configuration not stated)	104	110	-12	-15
54	CCSC1=C(C#N)C(=O)NC(C)S1 (configuration not stated)	103	102	3	-3
55	Cc1ccc(CSc2nnc([C@@H](N)C(C)C)o2)cc1	101&105	100&102	-4	-39
56	CC(NC1=NCCN1)C(=O)O (configuration not stated)	100	100	-4	-9
57	Cc1sc(N)nc1C12CC3CC(CC(C3)C1)C2	102	98	7	8
58	COc1cc(OC)cc(C(=O)Nc2ccccc2N2CCN(C)CC2)c1	101	102	-5	0
59	O=C(CSc1n[nH]c(=O)n1Cc1ccccc1)Nc1ccc2c(c1)CCC2	101	104	7	-31
60	CN(CC(=O)N1CCN(c2ccccc2)CC1)S(=O)(=O)c1cc2c(cc1Cl)NC(=O)CO2	99	100	8	-15

Part of the list above, in transposed form.
(48) CC(=O)N1CCN(c2ccccc2N)CC1
(49) CCSc1nc(N(C)C)nc(N2CCOCC2)n1
entry no.	48	49
PV pol inh	104	99
PV pol inh intensity	102	101
MbtI inh	-8	6
Mtb MenB inh	-22	2

The listing continues.
item	structure	PV pol inh	PV pol inh intensity	MbtI inh	Mtb MenB inh
61	COc1ccc(C2c3c(oc4ccccc4c3=O)C(=O)N2Cc2ccncc2)cc1 (configuration not stated)	100	106	3	12
62	COc1ccccc1CNC(=O)Cn1c(=O)cnc2ccccc21	109	114	11	2
63	CC(C)n1c(C(=O)OC(C(=O)NCc2ccco2)c2cccnc2)cc2sccc21 (configuration not stated)	101	99	6	-36
64	CCOC(=O)c1ccc(N=Cc2ccc3c(c2)OCO3)cc1	102	98	29	8
65	CCN(CC)C(C(=O)NC1CCCCC1)c1ccc(OC)cc1 (configuration not stated)	101	102	-7	-18
66	N#CC1=C(N)Oc2c(c(-c3ccccc3)nn2-c2ccccc2)C1c1ccc(Cl)cc1 (configuration not stated)	103	104	-8	-19
67	Cc1cc(C)n2nc(COc3ccccc3)nc2n1	105	101	-9	-21
68	Cc1cc(C)c(C)c(S)c1C	101	106	-6	-5
69	COC(=O)C1C(c2ccc(OC)cc2)C(C(=O)OC)S(=O)(=O)CS1(=O)=O (configuration not stated)	107	114	0	6
70	CCC(CC)NC(=O)Cc1ccc(Cl)cc1	106	108	/	-4
71	c1ccc(C2=Nc3ccccc3Oc3ccccc32)cc1	107	104	/	-33
72	CN(Cc1ccc(OC(F)F)cc1)C(=O)c1ccc(S(C)(=O)=O)cc1	/	/	1	-6
73	CC1=CC(=O)N(CCc2c[nH]c3ccc(OCc4ccccc4)cc23)C1=O	106	108	/	-26
74	COc1ccc(NC(=O)C2C3CCCCC32)cc1 (configuration not stated)	98	103	4	-15
75	CC(C)c1cc(NC(=O)COC(=O)c2ccccc2-n2cnnn2)on1	/	/	-7	-1
76	O=C(NC(=S)N1CCCc2ccccc21)c1ccco1	96	101	46	-28
77	Cc1c(OC(=O)c2ccco2)ccc2c1CCCC2	103	101	-2	-10
78	COc1cc(C2/C(=C(\O)c3ccccc3)C(=O)C(=O)N2CCC(=O)O)ccc1O (configuration not stated)	104	100	4	-62
79	COc1ccc(OCCSc2nnc3sc4ccccc4n23)cc1	105	109	-6	-23
80	CCOC(=O)c1c(C)[nH]c(C(=O)C(C)Sc2nnnn2-c2cc(C)ccc2OC)c1C (configuration not stated)	100	102	2	-9
81	CC1Cc2c([nH]c3ccccc23)C(=O)N1 (configuration not stated)	98	103	i	-45
82	Oc1ccc(N2CCNCC2)cc1	103	104	90	-4
83	Cc1cccc(NC(=O)c2ccccc2NC(=O)CN2CSCC2=O)c1	102	97	-16	-32
84	CCCOc1ccc(C(=O)c2nc3c(n2O)CCCCC3)cc1	102	103	-7	13
85	CCN(CC)c1nc(N2CCOCC2)nc(N2CC(=O)N(c3ccccc3)C2=N)n1	102	98	-14	19
86	N#C/C(=C\c1cn(CC(=O)N2CCCC2)c2ccccc12)C(=O)NCc1ccc2c(c1)OCO2	100	103	-5	-111
87	CCN(CC(=O)NCc1ccc(F)cc1)C(=O)C1CC1C (configuration not stated)	106	105	-2	8
88	CCn1c2ccccc2c2cc(NC(=O)C(C)OC(=O)c3cccn3C)ccc21 (configuration not stated)	20*	42*	17	-14
89	Cc1cnc(C(=O)Nc2ccc(N3CCN(C(=O)OC(C)(C)C)CC3)cc2)cn1	102	101	-9	14
90	N#Cc1cccc(OCC(=O)c2ccc[nH]2)c1	119	121	16	-17
91	CC1(C)C=C(c2c[nH]c(C3=CC(C)(C)NC(C)(C)C3)c2)CC(C)(C)N1	103	107	/	2
92	O=S1(=O)CCC(S(=O)(=O)NC2CCCC2)C1 (configuration not stated)	101	102	4	-11
93	O=C(NCC1COc2ccccc2O1)c1nn(-c2ccccc2)c(=O)c2ccccc12 (configuration not stated)	97	89	47	-1
94	COc1ccc(CCN2C(=O)C(C)SC2c2ccc(C#N)cc2)cc1OC (configuration not stated)	/	/	84	-13
95	N#Cc1ccc(/C=N/c2oc(-c3ccco3)c(-c3ccco3)c2C#N)cc1	104	139	49	-12
96	Cc1cc(/C=N/O)nc(=O)[nH]1	103	103	79	3
97	CN1CCCN(C(=O)c2csc3ccccc23)CC1	105	103	-10	-38
98	O=c1ccc(OCCOc2ccccc2)nn1-c1ccccc1	100	102	2	-9
99	FC(F)(F)c1cccc(N2CCN(C(=S)Nc3ccc4c(c3)OCO4)CC2)c1	99	100	3	-35
100	Cc1ccccc1CSc1nnc(Cn2c(=O)sc3ccccc32)n1C	102	103	0	-31
101	CCOC(=O)C1=C(CC)Nc2ccccc2N=C1N=Cc1c(O)n(CC)c(=S)n(CC)c1=O	106	110	-17	5
102	COC(=O)/C(=C(/O)CSc1nnc(Cc2csc(C)n2)o1)c1nc2ccccc2[nH]1	101	107	1	-11
103	COc1ccc(C)cc1S(=O)(=O)N1CCN(C(=O)c2ncoc2-c2cccc(C)c2)CC1	106	100	-8	-68
104	O=C(O)CCC(=O)Nc1cccc(C(=O)c2ccccc2)c1	101	104	-10	-14
105	COc1ccc(CNC(Cc2ccccc2)c2ccccc2)c(OC)c1C (configuration not stated)	106	103	/	-19
106	O=C(O)CSCC(=O)N1CCCC1	99	103	3	-2
107	N#CC1=C(N)Sc2oc(-c3ccccc3)cc(=O)c2C1c1ccccc1Cl (configuration not stated)	104	108	/	-12
108	O=C(CSCc1ccccc1)Nc1nccs1	101	101	-54	-9
109	O=C1c2ccccc2C(=O)N1CN(CCCn1ccnc1)CN1C(=O)c2ccccc2C1=O	102	104	-3	-12
110	O=C(Cc1ccccc1)NC(=S)Nc1ccccc1O	102	98	4	-2
111	N#C/C(=C\c1ccc(N2Cc3ccccc3C2)cc1)C(=O)NCc1ccco1	100	145	18	-43
112	N#CCCn1c(=S)n(CCC#N)c2ccccc21	100	105	/	-6
113	O=C(O)c1cccc2c1C(=O)N(C1CCCC1)C2	103	102	-2	24
114	Cc1nc(SC(C)C(=O)O)[nH]c(=O)c1Oc1ccccc1 (configuration not stated)	100	106	/	-2
115	COc1ccc2oc(=N)c(-c3nc4ccccc4[nH]3)cc2c1	103	109	-19	-27
116	Cc1ccccc1C(=O)Nc1sc2c(c1C(N)=O)CCC2	104	101	-9	/
117	C(=C\c1ccccc1)/CNCC1CCCO1 (configuration not stated)	101	102	-4	-43
118	NC(=O)C[n+]1ccn2c(NC3CCCCC3)c(-c3ccccc3O)nc2c1	76	185	2	-47
